# Bioassay records deposited in PubChem by several laboratories.
# Insulin prom inh: TRM-6 insulin promoter activity inhibition. AID 1273. inhibition, % at 2 µM. TRM-6 cells (human fetal islet line), insulin promoter-eGFP reporter, imaging; reporter expression induced with tamoxifen. 130,000 tested, 0.9% active;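 active means inhibition above the mean plus 3 SD, with well images judged a real hit on visual review, cut at about 60% in these data, passing the limit was not always enough; inconclusive means inhibition over the cutoff but images rejected on review; inactive means inhibition not above the cutoff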
# HSV augment: HSV replication enhancement | 220,000 tested, 0.005% active | maximum fold increase | HSV replication augmentation in cells, fold increase;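 active means peak rise of 1.5-fold or more in the series; inconclusive means self-fluorescent or not available for retest; tested in PC3 cells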;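 further: first round at 10 µM; read as green reporter fluorescence; hits show the peak of a series up to 25 µM; 1 = signal of infected wells without compound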
# PKD1 inh: inhibitors of human PKD1 kinase. Q15139. PKD1 kinase fluorescence polarization assay. inhibition, %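 (about 10 µM by stock and volumes)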. 200,000 tested, 0.056% active;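 active means inhibition of 50% or more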;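 further: controls were vehicle for no effect and a reference inhibitor for full effect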
# Target sequence (Q15139 whole entry, looked up): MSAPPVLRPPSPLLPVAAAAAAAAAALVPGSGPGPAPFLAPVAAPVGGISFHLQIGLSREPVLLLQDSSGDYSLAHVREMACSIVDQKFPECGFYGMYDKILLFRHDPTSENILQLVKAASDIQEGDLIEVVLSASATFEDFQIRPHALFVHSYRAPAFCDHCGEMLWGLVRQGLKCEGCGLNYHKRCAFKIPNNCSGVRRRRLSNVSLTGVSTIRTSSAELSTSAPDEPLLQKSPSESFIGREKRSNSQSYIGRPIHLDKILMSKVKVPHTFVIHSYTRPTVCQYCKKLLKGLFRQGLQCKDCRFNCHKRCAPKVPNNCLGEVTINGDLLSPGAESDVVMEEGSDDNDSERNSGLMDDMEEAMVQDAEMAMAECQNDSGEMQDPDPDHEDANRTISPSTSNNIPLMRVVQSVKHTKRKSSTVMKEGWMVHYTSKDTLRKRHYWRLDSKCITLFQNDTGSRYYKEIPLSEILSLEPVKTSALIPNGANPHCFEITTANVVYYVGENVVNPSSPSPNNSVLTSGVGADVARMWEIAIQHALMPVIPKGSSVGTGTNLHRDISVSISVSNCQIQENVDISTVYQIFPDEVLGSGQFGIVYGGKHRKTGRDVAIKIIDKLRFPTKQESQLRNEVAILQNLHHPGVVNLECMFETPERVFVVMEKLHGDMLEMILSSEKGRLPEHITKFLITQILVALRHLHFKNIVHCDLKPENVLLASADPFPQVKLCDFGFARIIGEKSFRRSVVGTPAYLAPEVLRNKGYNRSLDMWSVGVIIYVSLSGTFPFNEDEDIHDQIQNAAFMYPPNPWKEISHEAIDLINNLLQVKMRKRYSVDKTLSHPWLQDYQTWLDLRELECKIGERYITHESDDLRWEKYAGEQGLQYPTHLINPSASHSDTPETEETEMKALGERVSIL
# RGS16-Gao HTS: regulators of human RGS16-Galphao interaction. binding response (% of control), % at 10 µM. O15492+P09471. bead-based flow cytometry RGS16-Galphao binding, fluorescence; actives lie on both sides. 220,000 tested, 0.38% active;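 active means below 25% or above 175%, edge rows of some plates excepted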;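 further: Galphao activated by GDP with aluminum fluoride before binding; 100% = wells without compound and 0% = beads without RGS; some results beyond the cut were filed as inactive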
# GALR2 ag: agonists of human galanin receptor 2 (GALR2) | GALR2-expressing cells, agonist activation read-out | activation, %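 (tested at 5 µM)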 | 140,000 tested, 0.48% active | AID 803;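 active means above mean plus 3 SD of all compounds, about 5% in these data, not always enough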;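 further: 0% = vehicle buffer wells and 100% = reference agonist at full effect; tested in CHO reporter cells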
# Insulin prom inh cell count: also measured in Insulin prom inh; calls as there; normalized cell count, %; measured here: cell count, toxicity; reference of the scale not given here;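 cells exposed to compound for 48 h; stained nuclei by imaging scaled within each plate; lower means fewer cells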
# HSV augment primary fold: second read-out of HSV augment, no call of its own (marks repeat the call); fold increase; compound at 10 µM; measured here: primary screen fold increase 10 uM; tested in PC3 cells;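 GFP signal in the first replicate; 1 = infected wells without compound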
# Starred values were filed as active, the others as inactive; i = inactive; ? = inconclusive; · = no result given.
SMILES,Insulin prom inh,Insulin prom inh cell count,HSV augment,HSV augment primary fold,PKD1 inh,RGS16-Gao HTS,GALR2 ag
CC(C)Cc1nnc(NC(=O)CC(=O)Nc2ccccc2C(=O)O)s1,0,68,i,1,7,72,2.3
O=C(NC(Cc1ccccc1)C(=O)O)/C(=C\c1ccco1)NC(=O)c1ccccc1Br (stereo not drawn),19,175,i,1,-6,108,0.0
CCOC(=O)c1cc(-c2ccccc2)sc1NC(=O)CSc1nnnn1C,·,·,i,0.84,-12,96,0.3
O=C1c2ccccc2C(O)N1Cc1ccccc1Cl (stereo not drawn),·,·,i,1,-1,84,-1.7
CS(=O)(=O)N1CCCC(c2nc(-c3ccc(S(=O)(=O)NCc4ccccc4)cc3)no2)C1 (stereo not drawn),19,88,i,0.87,-8,105,-0.2
Cc1ccc(Cn2c(Sc3ncccn3)nc3c2c(=O)[nH]c(=O)n3C)cc1,·,·,i,0.86,-7,105,0.5
O=C(/C=C/c1ccc([N+](=O)[O-])cc1)NCc1cccs1,50,101,i,1.1,-18,99,-0.8
Cc1ccc(S(=O)(=O)Cn2nnnc2C(CC(C)C)N2CCN(C)CC2)cc1 (stereo not drawn),·,·,i,0.94,-9,108,·
CC1CC(NNC(=O)c2ccccc2)=Nc2ccccc2N1C (stereo not drawn),·,·,i,0.83,-8,96,-1.4
CC(Oc1ccc(C(=O)NC2CCCCC2)cc1)C(=O)O (stereo not drawn),-381,80,i,0.79,-7,101,-3.0
COc1ccc(N2CCN(C(=O)[C@H](Cc3c[nH]c4ccccc34)NC(C)=O)CC2)cc1,-41,105,i,1,0,101,·
Cc1cc(-c2csc(N)n2)c(C)n1C,-17,122,i,1.1,-2,83,-3.0

# Molecules above containing an aryl thioether with sulfur outside any ring:
SMILES,Insulin prom inh,Insulin prom inh cell count,HSV augment,HSV augment primary fold,PKD1 inh,RGS16-Gao HTS,GALR2 ag
CCOC(=O)c1cc(-c2ccccc2)sc1NC(=O)CSc1nnnn1C,·,·,i,0.84,-12,96,0.3
Cc1ccc(Cn2c(Sc3ncccn3)nc3c2c(=O)[nH]c(=O)n3C)cc1,·,·,i,0.86,-7,105,0.5

# Continued.
SMILES,Insulin prom inh,Insulin prom inh cell count,HSV augment,HSV augment primary fold,PKD1 inh,RGS16-Gao HTS,GALR2 ag
Cc1ccc(CN2CCN(CC(=O)NC(C)CCc3ccccc3)C2=O)cc1 (stereo not drawn),·,·,i,1.1,-5,106,-0.8
Cc1ccc(S(=O)(=O)Nc2c(C)nc3nc[nH]n3c2=O)c(C)c1,·,·,i,0.87,-2,93,·
COC(=O)c1ccc(CSc2cc(C)c3cccc(C)c3n2)o1,·,·,i,1.1,-3,99,·
O=C(CSCc1n[nH]c(=O)[nH]1)NCCOc1cccc(Oc2ccccc2)c1,29,98,i,0.85,-6,101,-2.6
C=CCN1C(=O)C(CC(=O)Nc2ccc(OC)cc2)N(Cc2ccco2)C1=S (stereo not drawn),-3,52,i,0.93,-1,87,16*
Nc1nc(CN2CCN(c3ccccc3F)CC2)nc(N2CCCc3ccccc32)n1,·,·,i,0.92,-5,95,·
Cc1cccc(N2C(=O)C(Oc3ccc(Cl)cc3Cl)C2C=O)c1C (stereo not drawn),10,75,i,0.48,-6,107,0.4
O=C(O)c1cccc(NC(=O)c2cc(S(=O)(=O)N3CCOCC3)cs2)c1,-52,188,i,0.89,-5,109,·
CC(C)(C)c1ccc(C(O)CCCN2CCC(C(O)(c3ccccc3)c3ccccc3)CC2)cc1 (stereo not drawn),-29,73,i,0.54,-5,116,-0.9
Cc1cc(C(=O)NC(C)Cc2ccccc2)cc(C)c1[N+](=O)[O-] (stereo not drawn),-7,124,i,0.95,-2,108,·
CCN(CC)c1ccc(/C=C(/C#N)C(=O)NC(C)C)o1,·,·,?,·,2,105,·
Cc1cccc2cc(CN(Cc3cccs3)S(=O)(=O)c3ccc4c(c3)OCCO4)c(=O)[nH]c12,17,92,i,0.89,-5,103,-0.8
O=C(/C=C/c1ccc2c(c1)OCO2)c1ccco1,·,·,i,1,2,101,0.6
CC(=O)Nc1ccc(C(=O)N2CCCC2)cc1,5,125,i,1,-10,101,-0.6
CC(NC(c1ccccc1)c1ccccc1)C(=O)N1CCCc2ccccc21 (stereo not drawn),-2,112,i,0.99,-5,108,-1.7
Cc1cc(C)n2nc(SC(C)C(=O)Nc3ccc(Cl)cn3)nc2n1 (stereo not drawn),-55,209,i,0.98,-12,109,·
CSc1oc(-c2cccs2)nc1S(=O)(=O)c1ccccc1,·,·,i,1.1,·,100,·
Cc1ccc(C)c(Nc2ncccc2C(=O)NCc2cccs2)c1,12,118,i,0.95,-5,90,-2.1
CCn1c(NC(=O)c2cccs2)c(-c2cccs2)c(=O)c2ccccc21,27,64,i,0.97,-3,99,-0.2
CCOC(=O)N1CCC(N(CCOC)C(=O)Nc2ccc(Cl)c(Cl)c2)CC1,·,·,i,1.2,-11,58,-1.7
Cc1cc2nnc(SC(C)C#N)n2c2ccccc12 (stereo not drawn),26,112,i,0.95,-5,101,0.3
COc1ccc2nc(N3CCCC3)[nH]c2c1,·,·,i,1.3,1,106,-0.8
Cc1ccc(S(=O)(=O)NCC(=O)N(CC(=O)NC(C)(C)C)Cc2cccs2)cc1,-200,107,i,0.76,-1,98,0.6
CCN(CC)C(=O)c1cc2c(=O)c3cc(Cl)ccc3oc2nc1C,-27,101,i,1,1,99,·
O=C(NC1CCCCC1)N1CCN(C(=O)c2ccco2)CC1,0,99,i,0.94,-2,103,0.3
CC1CN(Cc2nc3c(c(=O)[nH]c(=O)n3C)n2CCCc2ccccc2)CC(C)O1 (stereo not drawn),20,120,i,0.95,-5,100,-0.3
CCOC(=O)c1ccc(NC(=O)c2n[nH]c(=O)c3ccccc23)cc1,·,·,i,0.91,-4,101,·
O=C(NNc1ccc(F)cc1)c1c(F)cccc1Cl,·,·,i,1.2,·,101,·
CCOC(=O)c1cccc(NC(=O)CSc2nnc(COc3ccccc3)n2CC)c1,·,·,i,0.72,-3,96,-2.7
COc1ccc(N2CCN(c3nc(=S)n(-c4ccccc4)c(C)c3C(C)=O)CC2)cc1,0,66,i,0.96,-9,107,-2.2
COc1ccc(Br)cc1/C=N/NC(=O)Cn1nnnc1N,·,·,i,1,·,98,·
O=C(Nc1ccc2ccccc2c1)c1cccc(F)c1,·,·,i,0.89,·,107,·
CCOC(=O)C1=C(CSc2nc(-c3ccccc3)ccc2C#N)OC(N)=C(C#N)C1c1ccccc1 (stereo not drawn),-169,117,?,·,4,114,-1.3
O=C(Nc1ccc2ccccc2n1)Nc1cccs1,·,·,i,0.91,·,101,·
COC(=O)c1sc(NC(=O)COc2ccccc2)nc1C,13,124,·,·,1,105,-0.2
Cc1cc2c(cc1C)NC(=O)CC(C(F)(F)C(F)(F)C(F)(F)F)=N2,19,129,i,0.92,-6,109,-0.1

# Entries above printed as active in GALR2 ag.
Molecule | HSV augment | HSV augment primary fold | PKD1 inh | RGS16-Gao HTS | GALR2 ag
C=CCN1C(=O)C(CC(=O)Nc2ccc(OC)cc2)N(Cc2ccco2)C1=S (stereo not drawn) | i | 0.93 | -1 | 87 | 16*

# Next entries.
SMILES,Insulin prom inh,Insulin prom inh cell count,HSV augment,HSV augment primary fold,PKD1 inh,RGS16-Gao HTS,GALR2 ag
CCCOc1ccc(OCCSc2nnc(N)s2)cc1,-19,147,i,1,4,96,-0.4
CC(O)[C@H]1CNC(=O)C(=O)N1CC(C)(C)C (stereo partly drawn),·,·,i,0.97,·,104,·
CCOc1ccc(-c2cc(C(=O)NCCCN3CCN(CC)CC3)c3ccccc3n2)cc1,-50,102,i,0.82,-20,103,-2.3
S=C1NCN(Cc2cccnc2)CN1c1cccc(Cl)c1,·,·,i,0.97,·,118,·
CCOC(=O)c1ccc(-n2c(CN3CCN(CC)CC3)nc3ccc([N+](=O)[O-])cc3c2=O)cc1,-15,102,i,1.1,9,103,·
O=C(Nc1ccccc1-c1ccccc1)C1CCCC1,·,·,i,0.97,-7,96,·
C[C@H](Nc1ccc(C(F)(F)F)cc1[N+](=O)[O-])C(=O)O,·,·,i,0.95,·,102,·
O=C(Oc1csc(=S)n1C(=O)c1ccccc1)c1ccccc1,43,120,i,0.86,3,62,-2.0
CCN(CC)C(=O)C1CCCN(C(=O)Nc2ccccc2)C1 (stereo not drawn),7,35,i,1.1,-17,101,-1.8
S=C(c1c[nH]c2ccc(Br)cc12)N1CCOCC1,-39,124,i,1.1,-3,93,·
CC(=O)c1ccc(NC2=C(N3CCOCC3)C(=O)c3ccccc3C2=O)cc1,·,·,i,0.89,1,102,-4.0
Cc1ccc(S(=O)(=O)CCSc2cccc(C(=O)Nc3ccccc3C(=O)O)c2)cc1,-13,73,i,0.98,-6,102,0.1
CCc1ccccc1N1C(=O)C2CC(C)=C(C)CC2C1=O (stereo not drawn),-30,113,i,1.1,-3,102,-0.5
COc1ccc(C)cc1NC(=O)c1ccc(N(C)S(C)(=O)=O)cc1,33,128,i,0.94,1,112,-0.6
COc1ccc(NC(=O)C2CCN(S(=O)(=O)c3ccc(OC)c(OC)c3)CC2)c(OC)c1,30,119,i,0.87,17,109,-1.4
CCn1c(-c2csc(-c3ccc(Cl)cc3)n2)n[nH]c1=S,-110,114,·,·,2,94,-1.3
Cc1c(NC(=O)CN2C(=O)NC3(CCC(C)CC3)C2=O)c(=O)n(-c2ccccc2)n1C (stereo not drawn),-31,84,i,0.89,-4,101,·
Cc1cc(C)nc(SCC(=O)Nc2cc(C)on2)n1,·,·,i,0.95,10,98,-2.8
CN(C)S(=O)(=O)c1ccc(Cl)c(NC(=O)COC(=O)C2CSC3(C)CCC(=O)N23)c1 (stereo not drawn),34,147,i,1,4,103,0.0
CC1(C)Cc2c(c(-c3ccco3)nc3sc4c(NCCCO)ncnc4c23)CO1,·,·,i,1,·,94,·
COc1ccccc1CSc1nc2ccccc2[nH]1,·,·,i,0.86,-9,103,-3.5
Brc1ccc2c(c1)C(c1ccc(N3CCOCC3)cc1)=NNC(c1cccs1)=N2,29,105,i,0.99,-7,98,-2.3
Cc1c(CCOC(=O)C23CC4CC(CC(C)(C4)C2)C3)sc[n+]1CC(=O)c1ccccc1,·,·,i,0.9,1,107,·
O=C(CN1C(=O)C2CCCN2C(=O)c2ccccc21)Nc1ccccc1-n1cccc1 (stereo not drawn),·,·,i,1,-2,·,-2.7

# 4 structures out of the list, arranged by SMILES length, high to low.
SMILES,Insulin prom inh,Insulin prom inh cell count,HSV augment,HSV augment primary fold,PKD1 inh,RGS16-Gao HTS,GALR2 ag
COc1ccc(NC(=O)C2CCN(S(=O)(=O)c3ccc(OC)c(OC)c3)CC2)c(OC)c1,30,119,i,0.87,17,109,-1.4
O=C(CN1C(=O)C2CCCN2C(=O)c2ccccc21)Nc1ccccc1-n1cccc1 (stereo not drawn),·,·,i,1,-2,·,-2.7
CC1(C)Cc2c(c(-c3ccco3)nc3sc4c(NCCCO)ncnc4c23)CO1,·,·,i,1,·,94,·
COc1ccccc1CSc1nc2ccccc2[nH]1,·,·,i,0.86,-9,103,-3.5

# Next part
SMILES,Insulin prom inh,Insulin prom inh cell count,HSV augment,HSV augment primary fold,PKD1 inh,RGS16-Gao HTS,GALR2 ag
CC(NC(=O)/C(C#N)=C/c1cn[nH]c1-c1ccccc1)c1ccccc1 (stereo not drawn),·,·,i,0.73,8,98,-2.4
C/C(=C\C(=O)c1cccnc1)Nc1ccc(C(=O)O)cc1,-27,128,i,0.81,2,92,2.7
CCCCOC(=O)c1nnc(-c2ccc(Cl)cc2)o1,·,·,i,0.92,·,98,·
O=C(Nc1ccc(N2CCCC2=O)cc1)c1cccc(F)c1,44,91,i,0.92,-7,105,-1.4
CC1CCc2c(sc3ncn(CC(=O)N4CCCCC4)c(=O)c23)C1 (stereo not drawn),·,·,i,0.77,4,100,·
O=C(COc1ccccc1Cl)NCCC1=CCCCC1,·,·,i,1,-2,69,-1.1
Cc1cc2oc(=O)cc(CN3CCc4ccccc43)c2cc1Cl,-50,117,i,0.93,-4,108,-1.0
COC(=O)c1ccc(C(=O)OC)c(NC(=S)N2CCC(C)CC2)c1,-31,105,i,1,2,110,-0.4
Cc1cc(C)c(C#N)c(SCC(=O)Nc2ccccc2C(N)=O)n1,36,128,i,0.8,-5,97,-2.3
O=C(NCc1cccs1)C1CCCN(S(=O)(=O)c2cnc[nH]2)C1 (stereo not drawn),·,·,i,1,-4,124,-1.2
CCOC(=O)C1C(=O)Nc2nc(C)nn2C1c1ccccc1 (stereo not drawn),·,·,i,0.84,-1,103,-0.2
S=C1NC[C@H](Cc2cccc3ccccc23)N1CC1CCCCC1,·,·,i,0.63,·,101,·
